# DUX4 txn inh = inhibitors of DUX4-driven ZSCAN4 reporter expression, primary screen, 293T cells, Gaussia and Italica luciferase; 293T-iDUX4 ZSCAN4-Gaussia luciferase reporter, 24 h; stronger effect = lower value; activity change, negative = inhibition, % (test concentration not listed); 37,000 compounds, 0.8% hits; AID 1224904, 2016;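 active = -10% or lower and over 25 points stronger than a control reporter; inconclusive = -10% or lower with a smaller gap; inactive = above -10%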;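 note: 0% = median of neutral control wells and -100% = median of positive control wells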
# DUX4 txn inh difference = also measured in DUX4 txn inh; calls as there; Gaussia minus Italica difference, %; measured here: selective DUX4 reporter inhibition;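 worked out from the two reporters; negative = selective loss of the DUX4 reporter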
# DUX4 txn inh control = recorded beside DUX4 txn inh, whose call it bears; activity change, negative = inhibition, %; measured here: Italica tet-on control reporter;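 0 = neutral control and -100 = positive control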
# Starred values were filed as active, the others as inactive; ? = inconclusive; . = not tested or not shown. Some of the compounds tested (hit frequency here may not be typical).
item	Structure	DUX4 txn inh	DUX4 txn inh control	DUX4 txn inh difference
1	COc1cccc(S(=O)(=O)Nc2ccc3c(c2)C(=O)N(C)[C@H]2CC[C@H](CC(=O)Nc4ccc(C(C)C)cc4)O[C@@H]2CO3)c1	-2.7	-0.7	-2.0
2	CO[C@H]1CN(C)C(=O)c2ccc(NC(=O)Nc3cccc(Cl)c3)cc2OC[C@@H](C)NC[C@@H]1C	-7.2	-3.3	-3.9
3	COc1ccc(C#Cc2ccc([C@@H]3[C@@H](CO)N4CCCCN(C)C[C@@H]34)cc2)cc1	?	.	.
4	COc1ccc(CN(C)C[C@@H]2OCCCC[C@@H](C)Oc3ccc(NS(C)(=O)=O)cc3C(=O)N([C@H](C)CO)C[C@@H]2C)cc1	-4.8	-4.1	-0.7
5	COc1ccc2c3c(n(C)c2c1)[C@@H](CO)N(C(=O)Nc1ccc(F)cc1)CC31CN(C(=O)Cc2ccncc2)C1	3.1	-12.6	15.7
6	COc1ccc2c3c([nH]c2c1)[C@H](CO)N(Cc1ccccc1)CC31CCN(C(=O)Cc2ccccc2)CC1	?	.	.
7	CC(C)C#Cc1cnc2c(c1)C(=O)N([C@H](C)CO)C[C@H](C)[C@@H](CN(C)C(=O)Nc1ccccc1F)O2	-0.3	2.0	-2.3
8	C[C@H]1CC=CC[C@H](c2ccc(F)cc2)NC(=O)[C@H](C)N(C)C(=O)c2ccccc2O1 (mixture of isomers)	1.8	-2.2	4.0
9	O=C(c1ccc2c(c1)OCO2)N1CCCCN2[C@H](C1)[C@H](c1ccc(-c3ccccc3)cc1)[C@@H]2CO	?	.	.
10	O=C(C[C@H]1CC[C@@H]2[C@H](COC[C@H](O)CN2Cc2ccccc2)O1)NCc1ccccc1Cl	-0.4	3.0	-3.4
11	C[C@@H](C(=O)N(C)C[C@H]1OCc2ccccc2-c2ccccc2C(=O)N([C@@H](C)CO)C[C@@H]1C)c1ccccc1	-1.8	0.4	-2.2
12	C[C@H]1CN([C@@H](C)CO)C(=O)c2cc(NC(=O)Cc3cn(C)c4ccccc34)ccc2O[C@@H]1CN(C)Cc1ccc2c(c1)OCO2	0.4	2.0	-1.6
13	CO[C@H]1CC[C@H]2CCOc3c(C#N)cccc3C(=O)N(C)C[C@H](C)C(=O)N(C)C[C@H]1O2	2.4	1.0	1.4
14	COc1ccc2c3c(n(C)c2c1)[C@@H](CO)N(C(C)=O)CC31CN(Cc2cccnc2)C1	19.4	7.0	12.4
15	CC(C)NC(=O)N[C@H]1C=C[C@H](CC(=O)O)O[C@H]1CO	-3.0	0.3	-3.3
16	O=C(Nc1ccc(-c2ccccc2)cc1)[C@H]1[C@H](CO)[C@H]2Cn3c(cccc3=O)[C@H]2N1CC1CCCC1	?	.	.
17	C[C@@H](NC(=O)C[C@H]1C=C[C@@H](NC(=O)c2cccnc2)[C@@H](CO)O1)c1ccccc1	-4.4	3.4	-7.8
18	O=C(c1cccc(F)c1)N1CCCCN2[C@H](CO)[C@@H](c3ccc(-c4ccccc4)cc3)[C@H]2C1	3.2	13.5	-10.3
19	O=C(C[C@H]1C[C@H]2c3cc(NC(=O)Cc4ccncc4)ccc3O[C@H]2[C@H](CO)O1)NCC1CC1	0.7	4.1	-3.4
20	Cc1ccccc1S(=O)(=O)N1[C@H](C#N)[C@H](c2ccccc2)[C@H]1CO	4.6	6.1	-1.5
21	COc1ccc2c3c(n(C)c2c1)[C@@H](CO)N(Cc1ccccc1Cl)CC31CN(C(C)=O)C1	6.4	3.6	2.8
22	COc1ccccc1-c1ccc2c(c1)O[C@@H](CN(C)C(=O)c1ccncc1)[C@H](C)CN([C@H](C)CO)S2(=O)=O	-2.5	1.5	-4.0
23	C[C@H]1CN([C@@H](C)CO)C(=O)c2cc(NS(=O)(=O)c3cccs3)ccc2O[C@H]1CN(C)Cc1ccc(C(=O)O)cc1	-0.9	3.6	-4.5
24	C[C@@H]1CN([C@@H](C)CO)C(=O)c2cc(/C=C/c3ccccc3)cnc2O[C@H]1CN(C)C(=O)c1ccc2c(c1)OCO2	3.6	8.2	-4.6
25	CC(=O)N(C)C[C@H]1[C@H](c2ccc(-c3ccc(F)cc3)cc2)[C@@H](CO)N1C(C)=O	1.8	0.5	1.3
26	CN(C)CC(=O)N1[C@H](C#N)[C@@H](c2ccc(C#CC3CC3)cc2)[C@@H]1CO	1.5	0.6	0.9
27	Cc1cccc(-c2ccc([C@H]3[C@@H](CO)N4CCCCN(C(=O)NC(C)C)C[C@H]34)cc2)c1	2.9	-1.9	4.8
28	CN1c2ccc(C3=CCCCC3)cc2[C@@H]2[C@@H](CCN2S(=O)(=O)c2ccccc2)[C@H]1CO	-1.3	3.3	-4.5
29	C[C@@H]1CCCCO[C@@H](CN(C)C(=O)c2ccncc2)[C@@H](C)CN([C@@H](C)CO)C(=O)c2cc(NC(=O)CCC(F)(F)F)ccc2O1	-2.1	1.0	-3.1
30	C[C@H]1CN([C@@H](C)CO)C(=O)c2cccc(NS(=O)(=O)c3ccc(F)cc3)c2O[C@@H]1CN(C)Cc1ccc(Cl)c(Cl)c1	-0.5	0.4	-0.9

# Compound profiles, as listed above.
# Cc1cccc(-c2ccc([C@H]3[C@@H](CO)N4CCCCN(C(=O)NC(C)C)C[C@H]34)cc2)c1 as listed: DUX4 txn inh = 2.9; DUX4 txn inh control = -1.9; DUX4 txn inh difference = 4.8
# C[C@H]1CN([C@@H](C)CO)C(=O)c2cc(NS(=O)(=O)c3cccs3)ccc2O[C@H]1CN(C)Cc1ccc(C(=O)O)cc1 as listed: DUX4 txn inh = -0.9; DUX4 txn inh control = 3.6; DUX4 txn inh difference = -4.5

# Further structures follow.
item	Structure	DUX4 txn inh	DUX4 txn inh control	DUX4 txn inh difference
31	CC(=O)N1C[C@H]2[C@@H](c3ccccc31)[C@@H](CO)N2C(=O)c1ccc(F)cc1	-2.5	-3.1	0.6
32	COCC(=O)Nc1ccc2c(c1)C(=O)N(C)[C@H]1CC[C@@H](CC(=O)NCc3ccc(OC)cc3)O[C@@H]1CO2	5.2	-8.6	13.8
33	O=C(C[C@H]1C[C@H]2c3cc(NC(=O)Nc4ccccc4F)ccc3O[C@H]2[C@H](CO)O1)NCc1ccc(Oc2ccccc2)cc1	?	.	.
34	COCC(=O)N1C[C@H]2[C@@H](c3ccccc31)[C@@H](CO)N2Cc1cc(F)ccc1F	5.7	2.6	3.1
35	COc1ccccc1-c1ccccc1[C@H]1[C@H](C#N)N(C(=O)CN(C)C)[C@H]1CO	8.3	5.3	3.0
36	O=C(c1ccccn1)N1CC[C@@H]2[C@H](CO)Nc3ccc(C#Cc4ccccc4)cc3[C@@H]21	?	.	.
37	C[C@@H]1CN([C@H](C)CO)C(=O)c2cc(NC(=O)Nc3ccc4c(c3)OCO4)ccc2O[C@H]1CN(C)C	-2.8	-2.0	-0.8
38	COc1ccccc1C(=O)Nc1ccc2c(c1)OC[C@H](C)NC[C@@H](C)[C@@H](OC)CN(C)C2=O	3.7	-11.1	14.8
39	C/C=C/c1ccc([C@@H]2[C@@H](CO)N(C(=O)CC)[C@H]2CNC(=O)CC)cc1	-3.1	-1.4	-1.7
40	COCC(=O)Nc1ccc2c(c1)C(=O)N(C)C[C@H](OC)[C@@H](C)CN(C(=O)c1ccncc1)[C@@H](C)CO2	7.1	4.4	2.7
41	N#C[C@@H]1[C@@H](c2ccc(-c3ccc(F)cc3)cc2)[C@@H](CO)N1c1nc(-c2ccccc2)cs1	-0.4	-2.1	1.8
42	COc1ccc(S(=O)(=O)N[C@@H]2CC[C@@H](CC(=O)O)O[C@H]2CO)cc1	-2.0	-5.4	3.4
43	O=C(C1CCC1)N1CC2(C1)[C@H](c1ccccc1)[C@H](CO)N2C(=O)CC1CC1	3.1	7.0	-3.9
44	O=C(C[C@@H]1C[C@@H]2c3cc(NC(=O)c4cccnc4)ccc3O[C@@H]2[C@H](CO)O1)NCc1cccc(F)c1	4.4	5.9	-1.6
45	CO[C@@H](CN(C)S(=O)(=O)c1ccc(Cl)cc1)[C@H](C)CN(C(=O)Nc1ccccc1F)[C@@H](C)CO	0.4	3.5	-3.1
46	C[C@H]1CCCCO[C@H](CN(C)S(=O)(=O)c2cccs2)[C@@H](C)CN([C@@H](C)CO)C(=O)c2cc(N(C)C)ccc2O1	-1.5	2.0	-3.6
47	CN1c2ccc(-c3cccc(C#N)c3)cc2[C@@H]2[C@@H](CCN2C(=O)Cc2ccccn2)[C@H]1CO	?	.	.
48	Cc1ccc(S(=O)(=O)N2CC[C@@H]3[C@H](CO)Nc4ccc(C#Cc5cccc(F)c5)cc4[C@@H]32)cc1	8.8	4.1	4.7
49	O=C(C[C@H]1CC[C@H]2[C@@H](COC[C@@H](O)CN2S(=O)(=O)c2ccccc2Cl)O1)NCc1ccccc1Cl	?	.	.
50	Cc1noc(C)c1S(=O)(=O)N(C)C[C@H]1Oc2ccc(NS(=O)(=O)c3cn(C)cn3)cc2CC(=O)N([C@@H](C)CO)C[C@@H]1C	-0.5	1.2	-1.8
51	Cc1ccccc1-c1ccc([C@@H]2[C@H](CO)N3CCCCN(S(C)(=O)=O)C[C@@H]23)cc1	11.6	0.0	11.7
52	C[C@H](CO)N1C[C@H](C)[C@@H](CN(C)C(=O)Cc2ccccc2)OCc2cnnn2CCCC1=O	-1.0	7.7	-8.7
53	CC(C)C(=O)Nc1ccc2c(c1)C(=O)N(C)[C@H]1CC[C@@H](CC(=O)NCC3CC3)O[C@H]1CO2	-0.9	-3.5	2.6
54	CCC(=O)N1C[C@@H](O)COC[C@H]2O[C@H](CC(=O)NC)CC[C@@H]21	-1.0	-2.3	1.4
55	C[C@H]1CN([C@@H](C)CO)C(=O)Cc2cc(NC(=O)CCC(F)(F)F)ccc2O[C@@H]1CN(C)S(=O)(=O)c1ccc(Cl)cc1	1.7	1.3	0.3
56	COc1ccccc1S(=O)(=O)N[C@@H]1C=C[C@@H](CC(=O)NCc2cccc(F)c2)O[C@H]1CO	-1.3	1.4	-2.7
57	CO[C@@H]1CN(C)C(=O)c2cc(NC(=O)C3CC3)ccc2OC[C@H](C)N(C(=O)c2ccncc2)C[C@@H]1C	0.8	-2.0	2.8
58	O=C(C1CCCC1)N1CC2(C1)[C@H](c1ccccc1)[C@H](CO)N2Cc1ccccc1F	?	.	.
59	CNC[C@H]1Oc2ccc(NC(=O)Nc3c(C)noc3C)cc2C(=O)N([C@@H](C)CO)C[C@H]1C	-1.8	-1.9	0.1
60	CO[C@@H]1CN(C)C(=O)c2ccc(NC(C)=O)cc2OC[C@H](C)N(C(=O)c2cnccn2)C[C@@H]1C	5.0	1.3	3.7
61	CCCNC(=O)N1CC2(C1)CN(C(=O)CN1CCOCC1)[C@H](CO)c1[nH]c3cc(OC)ccc3c12	23.6	23.1	0.4
62	CO[C@H](CN(C)S(=O)(=O)c1ccccc1)[C@H](C)CN(C(=O)Nc1ccccc1F)[C@H](C)CO	-2.6	-0.4	-2.2
63	N#C[C@H]1N[C@H](CO)[C@H]1c1ccc(C#Cc2ccc(F)cc2)cc1	4.3	2.9	1.4
64	CCCNC(=O)N1CC2(C1)[C@H](c1ccccc1)[C@@H](CO)N2CC1CC1	-1.7	-1.7	0.0
65	CO[C@@H]1CN(C)C(=O)c2ccc(NS(=O)(=O)c3ccc(C)cc3)cc2OC[C@H](C)N(C)C[C@H]1C	3.3	1.7	1.7
66	C[C@@H]1CN([C@H](C)CO)S(=O)(=O)c2ccc(C3=CCCC3)cc2O[C@@H]1CN(C)CC1CCOCC1	5.0	5.0	0.0
67	CN(C)C(=O)c1ccc(-c2ccccc2[C@H]2[C@@H](C#N)N(C(=O)C3CC3)[C@@H]2CO)cc1	15.7	5.8	9.9
68	O=C(C[C@H]1CC[C@H]2[C@@H](COC[C@H](O)CN2Cc2nccs2)O1)N1CCC(Cc2ccccc2)CC1	?	.	.
69	C[C@H]1CN([C@@H](C)CO)C(=O)CCCn2nncc2CO[C@H]1CN(C)S(=O)(=O)c1cccc(F)c1	2.7	2.6	0.2
70	CCCN1[C@@H]2Cn3c(ccc(-c4cccnc4)c3=O)[C@H]1[C@@H](C(=O)NC1CCCC1)[C@@H]2CO	3.0	2.6	0.4
71	CC(C)C(=O)Nc1ccc2c(c1)C(=O)N(C)[C@@H]1CC[C@@H](CC(=O)NC3CCCC3)O[C@@H]1CO2	0.8	3.7	-2.9
72	N#C[C@H]1[C@@H](c2ccccc2)[C@H](CO)N1S(=O)(=O)c1ccc(-c2ccccc2)cc1	6.3	5.8	0.5
73	CCNC(=O)[C@@H]1[C@@H](CO)[C@@H]2Cn3c(ccc(-c4ccc(F)cc4)c3=O)[C@H]1N2C(=O)C1CC1	-2.9	-2.7	-0.2
74	COc1cccc(NC(=O)N2CC3(C2)[C@H](c2ccccc2)[C@@H](CO)N3C(=O)C2CCCC2)c1	-7.6	0.0	-7.5
75	O=C(c1ccccn1)N1CC(=O)N2[C@H](CO)[C@@H](c3ccc(C#Cc4ccccc4)cc3)[C@@H]2C1	?	.	.
76	Cc1noc(C)c1S(=O)(=O)N(C)C[C@@H]1OCCCC[C@@H](C)Oc2ccc(NC(=O)CCC(F)(F)F)cc2C(=O)N([C@@H](C)CO)C[C@@H]1C	-1.1	0.8	-1.9
77	CC(C)C#Cc1ccc([C@@H]2[C@@H](C#N)N(C(=O)C3CCOCC3)[C@H]2CO)cc1	-1.0	2.0	-2.9
78	CCC(=O)N1[C@@H](CO)[C@H](c2ccccc2)C12CN(C(=O)c1ccc(F)cc1)C2	-0.5	-0.3	-0.2
79	CO[C@@H]1CN(C)C(=O)c2ccc(NC(=O)Nc3cc(F)ccc3F)cc2OC[C@H](C)N(C)C[C@@H]1C	0.2	-8.0	8.3

# High-throughput results: PubChem, Broad Institute
